VCAM-1 imaging – inhibitors of TNFa-induced VCAM-1 surface display, imaging, high-content imaging, pooled HUVEC, TNFa stimulus (AID 456); hit rate 0.2% among 10,000; HUVEC TNFa-induced VCAM-1 surface expression, immunofluorescence imaging; numbers were filed only for top-ranked candidate wells; inhibition, % at 5 µM, or IC50 in µM where a hit was titrated;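 active = top tenth filtered wells with inhibition above zero that passed visual or statistical confirmation; inactive = the rest, including hits rejected on review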;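 also: 0% = stimulated vehicle wells and 100% = unstimulated cells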
FPRL1 ligand – human FPRL1 ligands by binding competition, primary screen, cell-based, FPR counter-screen, flow cytometry; N-formyl peptide receptor 2 (Homo sapiens), P25090; FPRL1-expressing cells, fluorescent ligand binding inhibition; inhibition, %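 (tested at 6.7 µM)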; hit rate 0.3% among 24,000;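 also: 0% = buffer alone and 100% = receptor blocker peptide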
Target sequence (P25090 whole entry, looked up): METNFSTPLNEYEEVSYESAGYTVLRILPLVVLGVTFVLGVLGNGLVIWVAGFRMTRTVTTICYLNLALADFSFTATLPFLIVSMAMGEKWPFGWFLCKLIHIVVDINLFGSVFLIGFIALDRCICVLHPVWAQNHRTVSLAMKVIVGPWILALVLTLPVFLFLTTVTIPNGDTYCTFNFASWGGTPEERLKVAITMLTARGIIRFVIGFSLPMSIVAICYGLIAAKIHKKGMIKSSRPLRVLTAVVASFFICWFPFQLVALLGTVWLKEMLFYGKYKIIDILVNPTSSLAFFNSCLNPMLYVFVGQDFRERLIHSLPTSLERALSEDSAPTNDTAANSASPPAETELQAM
FPR binder – human FPR ligands by binding competition, primary screen, cell-based, FPRL1 counter-screen, flow cytometry; hit rate 0.74% among 24,000; FPR-expressing cells, fluorescent ligand binding; fMet-Leu-Phe receptor (Homo sapiens), P21462; AID 440, 2006; inhibition, %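 (tested at 6.7 µM)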;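 also: 0% = buffer wells and 100% = receptor blocker peptide wells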
Target sequence (P21462 whole entry, looked up): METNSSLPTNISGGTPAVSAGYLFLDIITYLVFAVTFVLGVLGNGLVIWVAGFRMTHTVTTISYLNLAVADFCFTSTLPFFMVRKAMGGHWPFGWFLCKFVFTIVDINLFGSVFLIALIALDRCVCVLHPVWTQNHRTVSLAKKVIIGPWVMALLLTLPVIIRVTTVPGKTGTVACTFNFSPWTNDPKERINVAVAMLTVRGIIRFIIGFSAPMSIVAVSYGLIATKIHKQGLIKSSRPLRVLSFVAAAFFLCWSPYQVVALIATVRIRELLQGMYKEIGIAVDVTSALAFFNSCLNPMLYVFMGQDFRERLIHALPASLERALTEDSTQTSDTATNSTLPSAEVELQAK
VCAM-1 inhibition – inhibitors of TNFa-induced VCAM-1 surface display, cell-based, plate reader, pooled HUVEC, TNFa stimulus (AID 454); hit rate 0.2% among 10,000; HUVEC TNFa-induced VCAM-1 surface immunofluorescence, plate reader; numbers were filed only for top-ranked candidate wells; inhibition, % at 5 µM;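 active = compound among top-ranked inhibitors of TNF-induced VCAM-1 adhesion protein staining, with the hit upheld by image or statistical review; inactive = the rest, including hits rejected on review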;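 also: 0% = TNFa with vehicle and 100% = cells without TNFa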
VCAM-1 augmentation – enhancers of VCAM-1 display on endothelial cells, imaging, high-content imaging, pooled HUVEC, TNFa stimulus (AID 457). Pooled HUVEC, TNFa-induced VCAM-1 immunofluorescence imaging; hits of this screen are not shown here. calls only. hit rate 0.2% among 10,000;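 active = a top-ranked rise in VCAM-1 staining upheld on image or statistical review; inactive = the rest, including candidates rejected on review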;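 also: compounds tested at 5 µM in the well; cells exposed to compound for 24 hours before fixing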
* hit, by the source's call; i = inactive; · = not tested or not shown.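 The calls were made as follows, unless noted: active = mean above 30%; inconclusive = self-fluorescent; inactive = the rest.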 Not all compounds are listed; rates above refer to the full screens.

SMILES	VCAM-1 imaging	FPRL1 ligand	FPR binder	VCAM-1 inhibition	VCAM-1 augmentation
O=C(NCc1ccccn1)c1nnc(Cc2ccc(Cl)cc2)o1	·	-3	1	·	·
CCOc1ccccc1C(=O)Nc1cc(=O)n(C)c(=O)n1C	i	4	8	i	i
COc1ccc(S(=O)(=O)n2nc(OC(=O)c3ccccc3Br)cc2N)cc1	·	-2	10	·	·
CC(=O)OC(C(=O)NC1CCCCC1)c1ccncc1 (stereo unspecified)	i	-4	-7	i	i
COc1ccc(CNC(=O)c2cc(C3CC3)on2)cc1	·	9	9	·	·
COc1ccc(CCNC(=O)C2CC(=O)N(c3ccccc3)C2)cc1OC (stereo unspecified)	i	1	2	i	i
CC(C)c1c(C#N)c(N)nc(SCC(=O)c2cc3ccccc3oc2=O)c1C#N	·	8	2	·	·
COc1ccccc1NC(=O)c1ccc(NC(=O)CSc2nnnn2C)cc1	i	-6	2	i	i
CCOc1ccc(N2C(=O)CC(N3CC(C)OC(C)C3)C2=O)cc1 (stereo unspecified)	i	-10	-3	i	i
CCN1C(=O)CSc2ccc(C(=O)NCCCN3CCOCC3)cc21	·	-2	-6	·	·
Cc1cc(N2CCN(C)CC2)nc2ccc(NC(=O)CCC(=O)NCc3ccco3)cc12	·	1	0	·	·
COc1ccc(N2CCN(C(=O)CNC(=O)Cn3c(C)cc4ccccc4c3=O)CC2)cc1	·	2	1	·	·
Cc1cccc(-c2nc(CS(=O)CC(=O)NCCCSC3CCCCC3)c(C)o2)c1 (stereo unspecified)	·	-8	5	·	·
CCCN(CCC)CCCNS(=O)(=O)c1cc(Br)cc2c1N(C(C)=O)CC2	·	8	6	·	·
O=S(=O)(Cc1ccccc1)N1CCn2c(nc3ccccc32)C1	·	-2	-12	·	·

Some of the entries so far, with bars between the fields.
structure | VCAM-1 imaging | FPRL1 ligand | FPR binder | VCAM-1 inhibition | VCAM-1 augmentation
CC(=O)OC(C(=O)NC1CCCCC1)c1ccncc1 (stereo unspecified) | i | -4 | -7 | i | i
CCOc1ccccc1C(=O)Nc1cc(=O)n(C)c(=O)n1C | i | 4 | 8 | i | i
COc1ccc(S(=O)(=O)n2nc(OC(=O)c3ccccc3Br)cc2N)cc1 | · | -2 | 10 | · | ·
O=C(NCc1ccccn1)c1nnc(Cc2ccc(Cl)cc2)o1 | · | -3 | 1 | · | ·
CC(C)c1c(C#N)c(N)nc(SCC(=O)c2cc3ccccc3oc2=O)c1C#N | · | 8 | 2 | · | ·
CCCN(CCC)CCCNS(=O)(=O)c1cc(Br)cc2c1N(C(C)=O)CC2 | · | 8 | 6 | · | ·

Next part.
SMILES	VCAM-1 imaging	FPRL1 ligand	FPR binder	VCAM-1 inhibition	VCAM-1 augmentation
COc1cc(C2N3CC4(C)CN2CC(C)(C3)C4)ccc1O (stereo unspecified)	i	12	-3	i	i
CCOC(=O)c1nnn(CC(=O)Nc2cc(Cl)ccc2C)c1C(=O)OCC	·	3	1	·	·
C=CCc1ccccc1OCC(O)CN1CCN(Cc2ccc3c(c2)OCO3)CC1 (stereo unspecified)	i	-7	-3	i	i
O=C(Cn1nc(Cc2cccnc2)c2ccccc2c1=O)Nc1ccc2c(c1)OCO2	i	-1	9	i	i
Cn1c(=O)oc2cc(S(=O)(=O)N3CCCC(C(=O)NCC4COc5ccccc5O4)C3)ccc21 (stereo unspecified)	i	-1	6	i	i
O=C(NCCc1ccc(Cl)cc1)C1CCN(C(=O)c2sccc2-n2cccc2)CC1	·	3	4	·	·
O=C(CN1C(=O)COc2ccccc21)NCCN1CCc2ccccc2C1	i	-4	-5	i	i
COC(=O)c1cn(C)c2ccc(S(=O)(=O)N3CC(C)CC(C)C3)cc2c1=O (stereo unspecified)	·	8	4	·	·
CCOC(=O)N1CCN(S(=O)(=O)c2ccc(C(=O)Nc3ccc(F)cc3F)cc2)CC1	·	10	17	·	·
CC(C)(C)n1ncc2c(=O)n(CC(=O)OCc3ccccc3)cnc21	·	-1	2	·	·
COc1ccc(OC)c(C2CC(=O)N3CN(c4ccc(C)c(Cl)c4)CSC3=C2C#N)c1 (stereo unspecified)	·	-2	-3	·	·
O=C(c1cnc2n(c1=O)CCS2)N1CCN(c2ccc(Cl)c(Cl)c2)CC1	·	-4	0	·	·
CCCCCn1c(CN2CCN(Cc3ccccc3)CC2)nc2c1c(=O)[nH]c(=O)n2C	·	-3	-9	·	·
O=C(COc1ccccc1)Nc1nc2ccccc2[nH]1	i	-1	-6	i	i
COC(=O)C(C)NS(=O)(=O)c1ccc(NC(C)=O)cc1 (stereo unspecified)	·	7	-15	·	·
CC(=O)c1cccc(NC(=O)c2ccc(NS(=O)(=O)c3c(C)noc3C)cc2)c1	·	1	0	·	·
Cc1ccc(NC(=O)Cn2cccc2)cc1C	·	-2	4	·	·
O=C(Nc1ccc2c(c1)OCO2)c1ccc(CN2CCOCC2)cc1	i	4	-4	i	i
CC(C)(C)n1ncc2c(=O)n(CC(=O)NCc3ccccc3)cnc21	i	3	7	i	i
O=C(NCCc1ccccc1)C1CCN(c2nc3ccccc3o2)CC1	·	1	3	·	·
CCC(Sc1nc(C)cc(=O)[nH]1)C(=O)Nc1ccc(Cl)cn1 (stereo unspecified)	·	-4	18	·	·
CCN(CC)CCCNC(=O)c1cn(CCOC)c(=O)c2c1c1ccccc1n2C	·	8	-2	·	·
COc1ccc(OC)c(C2CC(=O)N3CN(c4ccccc4)CSC3=C2C#N)c1 (stereo unspecified)	·	1	8	·	·
CC(=O)OC1CC2(C)C(=O)CCC2C2CCc3cc(O)ccc3C12 (stereo unspecified)	·	-3	0	·	·
CCNc1ccc(C(=O)OCC)cc1NC(=O)c1cc(S(=O)(=O)N2CCOCC2)ccc1C	i	13	4	i	i
CCN(C(=O)c1cn(CC)c(=O)c2cc(OC)c(OC)cc12)c1ccccc1C	·	9	10	·	·
CCN(CCCNC(=O)CN(C)S(=O)(=O)c1cccc2nsnc12)c1cccc(C)c1	·	-8	2	·	·
O=C(Nc1nccs1)c1cccc(NC(=O)C2CC2)c1	i	5	2	i	i
CCOC(=O)C(C)n1cnc2c(nnn2Cc2ccc(Cl)cc2)c1=O (stereo unspecified)	·	2	8	·	·
COc1ccc(CCNS(=O)(=O)c2ccc3c(c2)OCCO3)cc1	i	-5	-6	i	i

An excerpt of these results, with each value named:
CCNc1ccc(C(=O)OCC)cc1NC(=O)c1cc(S(=O)(=O)N2CCOCC2)ccc1C
  VCAM-1 imaging: i
  FPRL1 ligand: 13
  FPR binder: 4
  VCAM-1 inhibition: i
  VCAM-1 augmentation: i

CCN(C(=O)c1cn(CC)c(=O)c2cc(OC)c(OC)cc12)c1ccccc1C
  VCAM-1 imaging: ·
  FPRL1 ligand: 9
  FPR binder: 10
  VCAM-1 inhibition: ·
  VCAM-1 augmentation: ·

CCN(CCCNC(=O)CN(C)S(=O)(=O)c1cccc2nsnc12)c1cccc(C)c1
  VCAM-1 imaging: ·
  FPRL1 ligand: -8
  FPR binder: 2
  VCAM-1 inhibition: ·
  VCAM-1 augmentation: ·

Going on with the list:
SMILES	VCAM-1 imaging	FPRL1 ligand	FPR binder	VCAM-1 inhibition	VCAM-1 augmentation
CCOc1ccc(C2CC(c3cccc(C)c3)n3nc(N)nc3N2)cc1 (stereo unspecified)	·	1	6	·	·
Cc1cc(C)n(C(=O)C23CC4CC(CC(C4)C2)C3)n1	i	3	-3	i	i
COC(=O)CCN(C(=O)c1ccc2c(c1)OCO2)c1ccccn1	i	-1	20	i	i
O=C(Nc1ccc2oc(=O)ccc2c1)c1cccnc1	i	3	8	i	i
Cc1ccc(C)c(N2CCN(C(=O)C3CCN(S(=O)(=O)c4c(C)noc4C)CC3)CC2)c1	i	0	3	i	i
COc1ccc(C(=O)c2oc3ccc(Br)cc3c2NC(C)=O)cc1	·	-5	0	·	·
CCOC(=O)c1oc2ccccc2c1NC(=O)C1CCCCC1	·	-6	-8	·	·
CCOC(=O)C1CCCN(c2nc3ccccc3nc2C(C#N)C(=O)NCc2ccccc2)C1 (stereo unspecified)	i	2	-8	i	i
c1cc(CNc2ccc3c(c2)OCO3)ccn1	i	-4	-7	i	i
Cc1noc(C)c1S(=O)(=O)N(CC(=O)N1CCCC1)c1ccc(C(C)C)cc1	·	10	5	·	·
CCCCC(c1nnnn1CS(=O)(=O)c1ccc(C)cc1)N1CCN(c2ccccc2)CC1 (stereo unspecified)	i	-1	2	i	i
O=C(c1nc2n(n1)C(c1ccc(Cl)cc1)C=C(c1ccccc1)N2)N1CCOCC1 (stereo unspecified)	i	-8	-3	i	i
COc1ccc(C(NC(=O)C(C)(C)C)NC(=O)C(C)(C)C)cc1	i	-1	-6	i	i
CCC1CCCCN1CCCNC(=O)Cn1nc(-c2ccc(C)cc2)ccc1=O (stereo unspecified)	·	8	-6	·	·
COc1ccccc1NC(=O)Cn1cnc2sc(C(=O)NCc3ccco3)c(C)c2c1=O	·	-2	-8	·	·

A run of entries from further up, as a working copy:
SMILES	VCAM-1 imaging	FPRL1 ligand	FPR binder	VCAM-1 inhibition	VCAM-1 augmentation
Cc1cc(C)n(C(=O)C23CC4CC(CC(C4)C2)C3)n1	i	3	-3	i	i
COC(=O)CCN(C(=O)c1ccc2c(c1)OCO2)c1ccccn1	i	-1	20	i	i
O=C(Nc1ccc2oc(=O)ccc2c1)c1cccnc1	i	3	8	i	i
Cc1ccc(C)c(N2CCN(C(=O)C3CCN(S(=O)(=O)c4c(C)noc4C)CC3)CC2)c1	i	0	3	i	i

Next records follow:
SMILES	VCAM-1 imaging	FPRL1 ligand	FPR binder	VCAM-1 inhibition	VCAM-1 augmentation
COc1cc2cc(C(c3nnnn3C3CCCC3)N(C)C3CCCCC3)c(=O)[nH]c2cc1OC (stereo unspecified)	i	-11	0	i	i
COc1ccc(Cl)c(N2CCN(CCCNC(=O)Nc3ccc(C)cc3)CC2)c1	i	-2	-6	i	i
CCN(CC)CCCNC(=O)C1CCN(C(=O)c2cc3sccc3n2Cc2ccc(F)cc2)CC1	·	8	2	·	·
COc1ccc(-c2nn3c(-c4ccncc4)nnc3s2)cc1OC	i	5	-1	i	i
CCOC(=O)CSc1nnc(CNC(=O)c2cccs2)n1-c1ccccc1	·	-3	4	·	·
CN1/C(=C\C(=O)Nc2cccnc2)c2ccccc2CC1(C)C	i	1	0	i	i
CCOC(=O)N1CCC(NC(=O)C2CCCN(C(=O)c3cc4sccc4n3C)C2)CC1 (stereo unspecified)	i	1	-4	i	i
CCOc1ccccc1N1CSC2=C(C#N)C(c3c(OC)ccc4ccccc34)CC(=O)N2C1 (stereo unspecified)	·	-2	3	·	·
CCOc1ccccc1Nc1nc2ccccc2n2cnnc12	·	-3	-1	·	·
O=C1Nc2cccnc2Sc2ccccc21	·	-6	0	·	·
COc1ccc(-c2noc(CCC(=O)Nc3cc(Cl)c(OC)cc3OC)n2)cc1	·	-1	0	·	·
O=C1C2CCCN2C(c2ccccc2)N1c1ccc(Cl)cc1 (stereo unspecified)	i	-1	0	i	i
COc1ccc(Cl)cc1S(=O)(=O)N1CCN(C)CC1	·	-1	2	·	·
O=C(NCc1ccccn1)c1cc2ccccn2n1	·	12	10	·	·
Cc1nc2nc[nH]n2c(=O)c1NC(=O)c1c(-c2ccccc2Cl)noc1C	·	-3	9	·	·
COc1ccc(S(=O)(=O)N2CCCN(CC(=O)Nc3cc(NC(C)=O)ccc3OC)CC2)cc1	·	2	6	·	·
CCN(CC)S(=O)(=O)N1CCC(C(=O)NC2CCCc3ccccc32)CC1 (stereo unspecified)	i	7	-2	i	i
COc1ccc(-n2c(=O)cc(N3CCN(c4ccccc4F)CC3)[nH]c2=O)cc1	·	-2	-3	·	·
CCCCOC(=O)C1=C(C)Nc2ncnn2C1c1cccc(OC)c1OC (stereo unspecified)	i	-1	-6	i	i
Cn1c(=O)n(CCc2ccccc2)c(=O)c2c1nc1n2CCN1Cc1ccco1	·	-6	2	·	·
